High-throughput results (PubChem BioAssay)
BJeLR viability: kills HRASV12-expressing BJeLR cells; BJeLR (HRASV12) viability, CellTiter-Glo ATP luminescence, 48 h; reference of the scale not given here; inhibition, % (no concentration beside the values); actives 0.17% (n = 300,000);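 active = replicate mean above 50%; inconclusive = above 50% but judged a plate artefact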;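 also: 50 nL library stock added to about 25 µL; numbers are from one replicate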
ugtP null kill: kills S. aureus RN4220 lacking UgtP. S. aureus RN4220 ugtP deletion, OD600 growth, 16 h; some inactives read as strong as hits. growth inhibition, % (no concentration beside the values). actives 0.54% (n = 330,000);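 active = z-score under -3 and OD600 up to 0.15 on both plates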;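 also: plate controls were untreated wells for no effect and antibiotic for full effect; wells of about 80 µL received 100 nL stock; the first replicate is given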
Mtb hypoxia rep: inhibitors of hypoxia-regulated fluorescent reporter in Mycobacterium tuberculosis; AID 1159583; fluorescence inhibition, % (no concentration beside the values); M. tuberculosis hypoxia-regulated fluorescent reporter, fluorescence; actives 0.1% (n = 300,000);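 active = 35 to 45% if threefold the growth effect, above 45% if 1.5-fold the growth effect; inactive = the rest, general growth blockers included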;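 also: wells of about 50 µL received 100 nL stock; 0% = vehicle wells and 100% = reference inhibitor wells; whole bacteria with a GFP reporter of the hypoxia response; strong numbers were not always called active; many hits fall short of the cut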
Bead autofluor: counter-screen for toxin protease inhibitors: compound fluorescence; compound autofluorescence counterscreen, microsphere flow cytometry; stronger effect = higher value; fluorescence intensity (test concentration not listed); actives 3.1% (n = 360,000); AID 624483;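 active = at least 3 SD above the mean of all compounds, about 16000 in these data; inconclusive = too few beads counted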;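 also: 100 nL of 1 mM stock went into each well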
RN4220 kill: S. aureus RN4220 growth inhibition; inhibition, % (concentration not given with the values); AID 1259311; OD600, 16 h; actives 0.33% (n = 330,000);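 active = z-score of -3 or lower and OD600 up to 0.18 on both plates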;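 also: plate controls were untreated cells for no effect and reference antibiotic for full effect; stock transfer was 100 nL into about 80 µL; one replicate is shown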
PrP UTR inh: inhibition of PrP 5' UTR reporter expression. cell-based PrP 5' UTR mRNA reporter, plate reader. inhibition, % (no concentration beside the values). actives 0.35% (n = 340,000). AID 488862;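 active = every replicate at 50% or more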;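 also: 0 = median of the neutral control wells; tested in H4 reporter cells; numbers are from one replicate; inactives centre near -14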
Mtb hypoxia rep growth: second read-out of Mtb hypoxia rep, no call of its own (marks repeat the call); growth inhibition, %; measured here: M. tuberculosis growth (absorbance);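 0% = vehicle and 100% = reference antibiotic; read after six days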
* = called active by the depositor; ? = inconclusive; nt = no result given.

SMILES	BJeLR viability	ugtP null kill	Mtb hypoxia rep	Mtb hypoxia rep growth	Bead autofluor	RN4220 kill	PrP UTR inh
Cc1cccc(CN2CCCC(C(=O)N3CCCCC3)C2)c1 (stereo not drawn)	2.9	5.1	9.5	11.1	3933	2.5	-29.7
COc1ccccc1NS(=O)(=O)c1ccc(C(=O)N2CCN(c3ccccc3)CC2)cc1	nt	0.9	2.4	-4.1	3690	3.0	-6.0
CCN(CC)c1ccc(C=NNC(=O)CCC(=O)NCc2ccccc2)c(O)c1	nt	5.9	8.0	3.9	nt	13.1	nt
COc1ccc(C=NNC(=O)c2ccn[nH]2)cc1CSc1ccccn1	nt	-4.3	-7.7	-0.8	nt	2.5	nt
Cc1sc2nc(C3CCCCC3)nc(SCC(=O)N3CC(=O)Nc4ccccc43)c2c1C	2.6	-3.2	17.0	5.1	5796	3.0	-6.5
COCC(=O)NC(C)c1nc2ccccc2[nH]1 (stereo not drawn)	0.5	-1.5	4.4	0.9	4138	2.3	0.7
O=C(Oc1ccc(C=NNC(=O)c2ccccn2)cc1)c1cccc(F)c1	nt	2.3	8.1	2.0	nt	0.7	nt
C/C(=N\NC(=O)CNc1cccc(C(F)(F)F)c1)c1cccc(Br)c1	-4.9	nt	nt	nt	2540	nt	2.2
NC(=O)c1ccc(C(F)(F)F)n(Cc2c(Cl)cccc2Cl)c1=O	5.9	-21.2	3.8	-1.1	11649	1.9	-41.4
O=C1CC(C(F)(F)C(F)(F)C(F)(F)C(F)F)=Nc2ccccc2N1	2.0	9.8	16.8	7.0	7286	8.8	-10.5
CCCN(CCC)CCNC(=O)C1CCN(Cc2nc(-c3ccc(Cl)cc3)oc2C)CC1	1.7	3.3	14.8	5.7	15924	1.8	-15.4
Cc1n[nH]c(=O)n1-c1cccc(C(F)(F)F)c1	-5.6	0.5	-3.5	10.3	9926	-0.7	-16.4
CN(Cc1ccnc2ccccc12)C(=O)C1CCC(=O)N(Cc2ccccc2F)C1 (stereo not drawn)	2.1	5.6	7.1	1.9	5069	5.2	-7.3
CNC(=S)NC1CC2CCCC(C1)N2Cc1ccc(C)cc1 (stereo not drawn)	0.8	-0.2	15.9	9.4	3775	1.7	3.7
NS(=O)(=O)c1ccc(CNS(=O)(=O)c2cc(Cl)ccc2Cl)cc1	-11.8	12.7	17.4	1.6	5038	5.5	-16.9
O=C(N=Nc1c(O)[nH]c2ccc(Br)cc12)c1cc(-c2cccs2)nc2ccccc12	-5.6	24.6	15.2	11.1	6284	6.4	-26.5
COc1ccc(S(=O)(=O)N2CCN(CC(=O)Nc3ccccc3OC)CC2)cc1	-2.4	5.7	2.5	-2.2	4687	2.3	-9.5
CCOC(=O)c1ccccc1-c1csc(NS(=O)(=O)c2ccc(Cl)cc2)n1	1.9	-11.2	6.0	8.2	3609	12.3	-10.0
COc1ccc(CCC(=O)Nc2nnc(C)s2)cc1	0.8	4.6	3.1	1.5	4451	1.3	nt
NC(=O)CCC(NC(=O)c1ccc(Cl)cc1)C(=O)O (stereo not drawn)	3.0	-7.9	1.5	4.2	4228	3.2	-8.0
CCC(=O)Nc1cccc(C(=O)c2ccccc2)c1	-9.4	3.1	13.0	3.6	6144	1.5	-25.3
Cc1ccc(S(=O)(=O)N2CCN(C(=O)COC(=O)CCc3ccccc3)CC2)c(C)c1	nt	-0.3	-6.5	-4.1	8892	4.4	-17.3
COc1ccc(C(=O)NCc2nnc(SCC(=O)N3CCCc4ccccc43)o2)cc1OC	-2.7	4.4	5.5	-0.5	2520	0.0	-36.6
Cc1cc(=O)oc(C)c1C(=O)Nc1cccc2ccccc12	4.6	1.8	-2.0	8.4	4469	6.1	-15.9
CN(C)c1ccc(N=Cc2cccn2C)cc1	-0.7	nt	nt	nt	4955	nt	-61.3

Sorted by molecular weight (lowest first): some entries from above.
SMILES	BJeLR viability	ugtP null kill	Mtb hypoxia rep	Mtb hypoxia rep growth	Bead autofluor	RN4220 kill	PrP UTR inh
CCC(=O)Nc1cccc(C(=O)c2ccccc2)c1	-9.4	3.1	13.0	3.6	6144	1.5	-25.3
Cc1cc(=O)oc(C)c1C(=O)Nc1cccc2ccccc12	4.6	1.8	-2.0	8.4	4469	6.1	-15.9
O=C(Oc1ccc(C=NNC(=O)c2ccccn2)cc1)c1cccc(F)c1	nt	2.3	8.1	2.0	nt	0.7	nt
NC(=O)c1ccc(C(F)(F)F)n(Cc2c(Cl)cccc2Cl)c1=O	5.9	-21.2	3.8	-1.1	11649	1.9	-41.4
COc1ccc(C=NNC(=O)c2ccn[nH]2)cc1CSc1ccccn1	nt	-4.3	-7.7	-0.8	nt	2.5	nt
CN(Cc1ccnc2ccccc12)C(=O)C1CCC(=O)N(Cc2ccccc2F)C1 (stereo not drawn)	2.1	5.6	7.1	1.9	5069	5.2	-7.3
COc1ccc(S(=O)(=O)N2CCN(CC(=O)Nc3ccccc3OC)CC2)cc1	-2.4	5.7	2.5	-2.2	4687	2.3	-9.5
Cc1ccc(S(=O)(=O)N2CCN(C(=O)COC(=O)CCc3ccccc3)CC2)c(C)c1	nt	-0.3	-6.5	-4.1	8892	4.4	-17.3
COc1ccccc1NS(=O)(=O)c1ccc(C(=O)N2CCN(c3ccccc3)CC2)cc1	nt	0.9	2.4	-4.1	3690	3.0	-6.0
CCCN(CCC)CCNC(=O)C1CCN(Cc2nc(-c3ccc(Cl)cc3)oc2C)CC1	1.7	3.3	14.8	5.7	15924	1.8	-15.4
Cc1sc2nc(C3CCCCC3)nc(SCC(=O)N3CC(=O)Nc4ccccc43)c2c1C	2.6	-3.2	17.0	5.1	5796	3.0	-6.5
COc1ccc(C(=O)NCc2nnc(SCC(=O)N3CCCc4ccccc43)o2)cc1OC	-2.7	4.4	5.5	-0.5	2520	0.0	-36.6
O=C(N=Nc1c(O)[nH]c2ccc(Br)cc12)c1cc(-c2cccs2)nc2ccccc12	-5.6	24.6	15.2	11.1	6284	6.4	-26.5

Later entries:
SMILES	BJeLR viability	ugtP null kill	Mtb hypoxia rep	Mtb hypoxia rep growth	Bead autofluor	RN4220 kill	PrP UTR inh
COc1ccc(/C=N/NC(=O)c2cccc([N+](=O)[O-])c2)cc1O	5.6	nt	nt	nt	4693	nt	-8.4
CCn1c(SCC(=O)NCC2CCCO2)nnc1-c1ccccc1 (stereo not drawn)	1.0	1.0	15.0	4.4	2689	4.4	3.0
CC(=NNc1ccccn1)c1ccc(OC(F)F)cc1	nt	92.6*	-14.8	-9.4	nt	2.7	nt
COc1ccc(CSc2nnnn2-c2ccc(C(N)=O)cc2)cc1[N+](=O)[O-]	-10.1	-3.9	5.1	-0.3	3029	2.1	1.1
Cc1ccc(C)c(N2CCN(C3CCCC(C)C3)CC2)c1 (stereo not drawn)	0.2	13.3	8.7	11.8	3927	5.3	-17.5
COc1ccc(CCNC(=O)C(C)OC(=O)c2ccco2)cc1OC (stereo not drawn)	-4.1	-6.4	-1.3	1.5	3247	-2.4	-23.0
COc1cccc(CN2CCC(Oc3ccc(C(=O)N4CCCCC4)cc3)CC2)c1O	-11.3	4.1	7.3	9.3	5199	2.7	-24.3
CC(NC(=O)c1ccccc1F)c1nnc(SCc2nc3ccccc3c(=O)[nH]2)n1C (stereo not drawn)	3.7	2.5	10.6	2.0	4108	3.0	-21.9
O=C(C=Cc1ccc([N+](=O)[O-])cc1)NC1CC2CCC1C2 (stereo not drawn)	nt	4.8	5.2	13.3	nt	1.5	nt
CN(C)c1ccc(C2Nc3cccc4cccc(c34)N2)cc1	6.5	-16.3	10.8	13.3	3329	6.8	-44.6
Cn1c(CSCc2ccccc2Cl)n[nH]c1=S	-9.2	10.0	-1.4	5.3	2166	4.8	-13.8
COc1cc2ncnc(NCc3ccc(Cl)cc3)c2cc1OC	-4.0	-3.2	11.3	5.5	4828	15.7	-3.9
CC(=O)c1ccc(NC(=O)Nc2ccccc2)cc1	0.6	-4.2	-2.9	5.5	10461	2.0	-62.0
Cc1ccccc1C(=O)NCC(=O)O	-0.5	3.2	7.0	6.3	4042	3.2	-7.0
Cc1ccc(C)c(S(=O)(=O)N2CCNCC2)c1	-11.5	12.9	6.0	9.8	4301	6.8	-22.8
CCc1ccc(S(=O)(=O)NCc2cn3ccsc3n2)s1	2.1	6.5	6.6	7.9	9694	4.9	-16.5
CN(C)C(=O)c1ccc(NC(=O)CC2SC(N3CCCC3)=NC2=O)cc1 (stereo not drawn)	8.6	4.6	-11.8	-6.4	4456	3.5	6.4
COc1ccc(C=NNC(=O)c2ccc(N(C)S(=O)(=O)c3ccccc3)cc2)c(OC)c1	nt	-2.2	-16.7	11.1	nt	0.8	nt
COc1ccc(C(=O)NCC(=O)c2ccccc2)cc1	10.4	13.0	7.9	1.0	4045	4.7	-67.9
CC(=O)N1c2ccc(S(=O)(=O)N3CCC(C(=O)Nc4cc(C)cc(C)c4)CC3)cc2CC1C (stereo not drawn)	-1.7	4.2	-0.9	4.3	5730	-0.5	-1.8
O=C(Cn1nc(-c2ccc(F)cc2)ccc1=O)Nc1ccc(C(=O)NC2CC2)cc1	-3.0	5.4	0.3	2.2	2346	6.7	-7.3
CC12CCC(=O)N1C(C(=O)OCC(=O)Nc1ccc(S(N)(=O)=O)cc1)CS2 (stereo not drawn)	-2.8	2.6	nt	nt	2090	6.2	-26.1
O=S(=O)(Nc1cccc(-c2cn3cccnc3n2)c1)c1ccccc1	8.3	8.9	9.0	-4.0	8168	7.4	-10.7
CCCCNC(=O)c1ccc2c(OCC)n(CCCC)nc2c1	7.8	-4.7	8.3	12.1	3982	6.9	-31.7
CCc1ccc(C(=O)COC(=O)[C@@H](NC(N)=O)[C@@H](C)CC)cc1	-6.6	2.3	7.2	6.4	4577	-1.1	-28.4

Following part.
SMILES	BJeLR viability	ugtP null kill	Mtb hypoxia rep	Mtb hypoxia rep growth	Bead autofluor	RN4220 kill	PrP UTR inh
CCc1ccc2nc(N3CCC(C(=O)N4CCC5(CC4)OCCO5)CC3)sc2c1	2.6	4.0	12.5	8.0	3145	8.4	-33.4
COc1cccc(C(=O)C2CCCN(Cc3c(C)n(C)n(-c4ccccc4)c3=O)C2)c1 (stereo not drawn)	-1.1	6.6	11.7	6.9	4223	-1.4	-12.0
COCc1[nH][nH]c(=O)c1/C=N/N1CCOCC1	-0.3	nt	nt	nt	2254	nt	-3.1
CCN(CC(=O)Nc1c(F)cccc1F)C(=O)CCOc1ccccc1	4.2	5.9	13.3	-0.9	?	3.6	-1.3
CN1CCN(Cc2nc(Cc3ccccc3)no2)CC1c1ccccc1 (stereo not drawn)	1.2	3.6	14.1	3.9	4573	10.0	-12.3
COc1ccccc1CNC(=O)[C@@H]1CCCN1S(=O)(=O)c1ccc(C)cc1	0.4	-2.0	10.1	4.4	3233	2.5	7.1
O=C(C=Cc1ccc(F)cc1)NC(Cc1c[nH]c2ccccc12)C(=O)O (stereo not drawn)	nt	-3.2	7.2	6.3	nt	3.5	nt
Brc1ccc(-c2nc(-c3ccncc3)no2)o1	8.7	3.3	-10.9	-6.7	?	3.5	-17.6
Cn1cc(C(=O)C(=O)N2CCN(c3ccccc3)CC2)c2ccccc21	-4.1	16.5	6.4	0.2	4563	1.5	1.5
COCc1c(C(=O)N2CCN(c3ccccc3C)CC2)oc2ccccc12	nt	-3.4	-4.2	7.6	8330	-1.0	-4.0
Cc1cc(C)n2nc(CC(=O)NCc3ccc(F)cc3)nc2n1	-3.8	5.0	-3.8	-4.0	9297	4.1	2.4
CCN(CC)CCCNC(=O)C1c2cc(OC)c(OC)cc2C(=O)N(C)C1c1cccs1 (stereo not drawn)	-1.6	-5.4	-3.1	-8.6	4172	-0.2	-21.0
N#Cc1c(NC(=O)COC(=O)c2nccnc2N)sc2c1CCCC2	2.2	-3.3	-3.1	5.9	5602	3.5	1.7
Cc1ccc(NC(=O)C2CCCN2C(=O)NCc2ccccc2)cc1 (stereo not drawn)	nt	5.2	14.2	8.0	3906	5.1	-22.4
O=C(COc1ccccc1F)NNC(=O)c1ccc(F)c(S(=O)(=O)N2CCOCC2)c1	nt	-1.1	5.2	2.0	4072	2.3	-19.7
Cc1noc(C)c1COc1ccc(C(=O)N2CCN(c3ccccn3)CC2)cc1	-4.5	3.4	-3.3	-7.4	7177	4.0	-20.5
Cc1ccc(S(=O)(=O)NCc2ccccc2C)cc1	-17.7	-2.5	4.6	1.0	3038	5.1	-15.6
Cn1ccc(C(=O)NN=Cc2ccncc2)n1	nt	-0.8	-4.3	-1.9	nt	-4.9	nt
COc1ccc(/C=N/Nc2ncccc2[N+](=O)[O-])c(OC)c1	11.0	nt	nt	nt	3893	nt	-79.8
